MT1-MMP reporter = MT1-MMP gene expression reporter suppression – cell-based, luciferase reporter, luminescence (AID 618) | MT1-MMP promoter luciferase reporter cells, luminescence | calls from a first round at 10 µM; hits with a dose series show EC50 in µM | 0.62% of 87,000 active;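 active means over half of the reporter light lost at 10 µM or EC50 under 50 µM; inactive means the rest and hits that failed the dose series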;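 further: actives suppress MT1-MMP promoter-driven transcription so potencies describe inhibitors; HT1080 fibrosarcoma cells; overnight exposure; toxic or luciferase-blocking compounds were not removed from the actives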
WNV NS2B-NS3 inh = inhibitors of West Nile virus NS2B-NS3 protease; P06935; WNV NS2B-NS3 protease, fluorogenic substrate Ex360/Em465; stronger effect = lower value; z-score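 (tested at a level between 10 and 100 µM)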; 0.18% of 65,000 active;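 active means z-score at -3 or under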;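 further: score is relative to mean and spread of the compound wells of a plate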
Target sequence (P06935 1371-1501 limits assumed): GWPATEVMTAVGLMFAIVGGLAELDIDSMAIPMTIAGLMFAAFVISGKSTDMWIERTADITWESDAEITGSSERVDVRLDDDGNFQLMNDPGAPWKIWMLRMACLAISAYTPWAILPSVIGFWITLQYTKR
Target sequence (P06935 1502-1679 limits assumed): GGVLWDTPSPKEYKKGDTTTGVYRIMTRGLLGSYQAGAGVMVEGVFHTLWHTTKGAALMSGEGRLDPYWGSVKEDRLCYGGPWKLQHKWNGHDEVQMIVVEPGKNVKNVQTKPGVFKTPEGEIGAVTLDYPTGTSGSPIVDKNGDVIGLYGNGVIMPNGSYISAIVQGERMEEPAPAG
Hsc70 ATP site = Hsc70 inhibitors, probe displacement, primary screen, biochemical, fluorescence polarization (AID 568); Hsc70 fluorescence polarization, probe displacement; higher % means a stronger effect; strong numbers were not always called active; displacement, % at 20 µM; hits with a dose series show IC50 in µM; 83,000 tested, under 10 active;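 active means displacement above 50% without optical interference and an IC50 on retest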;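 further: ATPase domain with a fluorescein-tagged ATP probe; 0% = vehicle and 100% = excess ADP; read after one hour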
An asterisk follows results filed as active.

COc1ccc(OCC(=O)N2CCN(c3nnc(-c4ccccc4)c4ccccc34)CC2)cc1 was read as MT1-MMP reporter inactive, WNV NS2B-NS3 inh 0.84 and Hsc70 ATP site -0.2%.
`COc1ccc(S(=O)(=O)N(CC(=O)N2CCN(C)CC2)C2CCCCC2)cc1OC` gave MT1-MMP reporter inactive, WNV NS2B-NS3 inh -0.03 and Hsc70 ATP site -8.9%.
For Cc1ccc(C)c(OCCCCCn2ccnc2)c1 the results were MT1-MMP reporter inactive, WNV NS2B-NS3 inh 0.5 and Hsc70 ATP site 0.9%.
`CC(=O)c1cc2c(cc1NC(=O)c1ccc(-n3nc(C)cc3C)cc1)OCO2` gave MT1-MMP reporter inactive, WNV NS2B-NS3 inh -0.51 and Hsc70 ATP site -4.3%.
`CC(C)(C)c1ccc(C(=O)NCC(=O)OCN2C(=O)c3ccccc3C2=O)cc1` gave MT1-MMP reporter inactive and Hsc70 ATP site -5.1%.
For Cc1ccc(SCCNC(=O)C(C)C)cc1 the results were MT1-MMP reporter inactive, WNV NS2B-NS3 inh -0.05 and Hsc70 ATP site 14.3%.
COc1cc(C2/C(=C(\O)c3cc(C)ccc3C)C(=O)C(=O)N2CCN(C)C)ccc1O (stereo not given) was read as MT1-MMP reporter inactive, WNV NS2B-NS3 inh -0.21 and Hsc70 ATP site 4.5%.
Screening COC(=O)c1ccc(CSc2nc3sc4c(c3c(=O)n2C)CCCC4)o1 returned MT1-MMP reporter inactive, WNV NS2B-NS3 inh -0.22 and Hsc70 ATP site -0.3%.
For Cc1ccc(S(=O)(=O)Oc2ccc3c(c2)O/C(=C\c2cccnc2)C3=O)cc1 the results were MT1-MMP reporter inactive and Hsc70 ATP site 0.7%.
`CCOc1ccc(-c2cc(CCCC(=O)NCc3cccnc3)no2)cc1` gave MT1-MMP reporter inactive, WNV NS2B-NS3 inh -1.68 and Hsc70 ATP site -6.7%.
For COc1cccc(Nc2cc(C)nc3nc(C)nn23)c1 the results were MT1-MMP reporter inactive, WNV NS2B-NS3 inh -1.34 and Hsc70 ATP site -1.9%.
Cc1ccc(CCNC(=O)C2CCCN(S(=O)(=O)c3cccs3)C2)cc1 (stereo not given) was read as MT1-MMP reporter inactive and Hsc70 ATP site -2.2%.
O=C(NCc1ccco1)c1cc2sccc2n1Cc1ccccc1 was read as MT1-MMP reporter inactive, WNV NS2B-NS3 inh 0.59 and Hsc70 ATP site -2.7%.
Screening CCOc1cc(/C=C2/NC(=O)N(CC(=O)Nc3cccc(C)c3)C2=O)ccc1O returned MT1-MMP reporter inactive and Hsc70 ATP site -3.5%.
Screening Cc1ccc(NC(=O)c2ccc(S(=O)(=O)NCC3CCCO3)cc2)cc1 (stereo not given) returned MT1-MMP reporter inactive, WNV NS2B-NS3 inh -0.83 and Hsc70 ATP site -1.2%.
Screening COc1nc(OCCNC(C)=O)nc(N(C)C)n1 returned MT1-MMP reporter inactive and Hsc70 ATP site -3.0%.
Screening Cc1cc2c3nonc3ccc2n1C returned MT1-MMP reporter inactive, WNV NS2B-NS3 inh 2.5 and Hsc70 ATP site -2.9%.
COc1ccc(-c2nnc3ccc(SCC(=O)NCc4ccco4)nn23)cc1OC was read as MT1-MMP reporter inactive, WNV NS2B-NS3 inh -0.00417 and Hsc70 ATP site -2.9%.
`O=C(NCCCN1CCN(CCCNC(=O)c2ccc(F)cc2)CC1)c1ccc(F)cc1` gave MT1-MMP reporter inactive, WNV NS2B-NS3 inh -0.17 and Hsc70 ATP site 4.1%.
For CCOc1cccc2cc(C(=O)Nc3cc(C)on3)c(=O)oc12 the results were MT1-MMP reporter inactive, WNV NS2B-NS3 inh -0.43 and Hsc70 ATP site 2.7%.
Screening COc1ccc(-n2nnc3c(SCC(=O)N4CCN(c5ccccc5)CC4)ncnc32)cc1 returned MT1-MMP reporter inactive, WNV NS2B-NS3 inh 0.02 and Hsc70 ATP site 2.9%.
Screening COc1cccc(C(=O)N2CCN(Cc3cc(Br)ccc3OC)CC2)c1 returned MT1-MMP reporter inactive and Hsc70 ATP site 0.4%.
O=C(NCc1cn2ccsc2n1)Nc1ccc(Cl)cc1 was read as MT1-MMP reporter inactive, WNV NS2B-NS3 inh -0.25 and Hsc70 ATP site -1.3%.
For O=C(OCc1nnc(-c2ccccc2)o1)c1ccc2c(c1)OCCO2 the results were MT1-MMP reporter inactive, WNV NS2B-NS3 inh 0.6 and Hsc70 ATP site 0.8%.
CC(C)NC(=O)CSCc1c(F)cccc1Cl was read as MT1-MMP reporter inactive and Hsc70 ATP site 0.3%.
For O=S(=O)(c1cc(Cl)ccc1Cl)n1nnc2ccccc21 the results were MT1-MMP reporter inactive, WNV NS2B-NS3 inh 0.57 and Hsc70 ATP site -2.2%.
`COC(=O)c1ccc(S(=O)(=O)N2CCCC2)o1` gave MT1-MMP reporter inactive, WNV NS2B-NS3 inh -0.1 and Hsc70 ATP site -0.5%.
For CCOc1ccc(-c2[nH]ncc2Oc2cccc(OC)c2)c(O)c1 the results were MT1-MMP reporter inactive, WNV NS2B-NS3 inh 0.71 and Hsc70 ATP site -4.9%.
For CCOC(=O)C1C(=O)CC(C)(O)C(C(=O)OCC)C1c1ccc(F)cc1 (stereo not given) the results were MT1-MMP reporter inactive and Hsc70 ATP site -0.5%.
Screening CC(=O)NCC12CC3CC(C1)CC(C(=O)O)(C3)C2 returned MT1-MMP reporter inactive, WNV NS2B-NS3 inh 0.4 and Hsc70 ATP site 5.1%.
Screening Cn1c(=O)c2c(nc(NCc3ccco3)n2C/C=C/c2ccccc2)n(C)c1=O returned MT1-MMP reporter inactive, WNV NS2B-NS3 inh -0.03 and Hsc70 ATP site 1.9%.
`CSc1nnc([C@@H](NC(=O)OC(C)(C)C)C(C)C)o1` gave MT1-MMP reporter inactive, WNV NS2B-NS3 inh -0.62 and Hsc70 ATP site -3.2%.
CCOC(=O)N1CCN(C(=O)CN(c2ccc(OC)cc2)S(C)(=O)=O)CC1 was read as MT1-MMP reporter inactive and Hsc70 ATP site -5.7%.
O=C(COc1ncnc2c(Cl)cc(Cl)cc12)NCCC1=CCCCC1 was read as MT1-MMP reporter inactive and Hsc70 ATP site -1.3%.
For Cn1c(SCC(=O)Nc2nccs2)nnc1-c1ccc(S(=O)(=O)N2CCCC2)cc1 the results were MT1-MMP reporter inactive and Hsc70 ATP site 3.2%.
Screening Cc1nc(SCC(=O)Nc2ccc3c(c2)OCO3)c(C#N)c2c1CCCC2 returned MT1-MMP reporter inactive, WNV NS2B-NS3 inh -0.62 and Hsc70 ATP site -1.4%.
`Cc1cc(C)n(Cc2ccc(C(=O)NCCC3=CCCCC3)o2)n1` gave MT1-MMP reporter inactive, WNV NS2B-NS3 inh -0.07 and Hsc70 ATP site -6.0%.
`COc1ccccc1-c1nc(-c2ccc(Br)cc2)no1` gave MT1-MMP reporter inactive, WNV NS2B-NS3 inh -0.27 and Hsc70 ATP site -0.6%.
CC(NC(=O)c1ccc(Cl)s1)C1CCCO1 (stereo not given) was read as MT1-MMP reporter inactive and Hsc70 ATP site 3.4%.
Screening Cc1cc(=O)oc(C)c1C(=O)N1CCc2c([nH]c3ccccc23)C1C(C)C (stereo not given) returned MT1-MMP reporter inactive, WNV NS2B-NS3 inh -0.22 and Hsc70 ATP site 8.0%.
Screening O=C(Cn1cc2c(n1)CCCC2)N1CCCC1 returned MT1-MMP reporter inactive, WNV NS2B-NS3 inh 1.96 and Hsc70 ATP site 1.2%.
Screening COc1ccc(C(C)C)cc1S(=O)(=O)Nc1ccccn1 returned MT1-MMP reporter inactive and Hsc70 ATP site 3.6%.
Cc1ccc(C)n1-c1cc(S(=O)(=O)N2CCOCC2)ccc1N1CCCC1 was read as MT1-MMP reporter inactive, WNV NS2B-NS3 inh 1.63 and Hsc70 ATP site -7.3%.
CCN(CC)S(=O)(=O)c1ccc(NC(=O)c2ccc(CN3CCOCC3)cc2)cc1 was read as MT1-MMP reporter inactive and Hsc70 ATP site -2.6%.
`Cc1ccc(-n2nnc3c(=O)n(Cc4ccccc4C)cnc32)cc1` gave MT1-MMP reporter inactive, WNV NS2B-NS3 inh 0.67 and Hsc70 ATP site 4.5%.
Cc1ccc(-n2c3c(cc(C(=O)NCCCN4CCOCC4)c2=O)C(=O)CC(C)(C)C3)cc1 was read as MT1-MMP reporter inactive, WNV NS2B-NS3 inh 0.16 and Hsc70 ATP site 2.3%.
CCC(Sc1nc2sc(C(=O)OC)c(C)c2c(=O)n1N)C(=O)NCC1CCCO1 (stereo not given) was read as MT1-MMP reporter inactive, WNV NS2B-NS3 inh 0.36 and Hsc70 ATP site -4.9%.
CCOC(=O)N1CCN(C(=O)CSc2nc3c(cnn3-c3ccc(Cl)cc3)c(=O)[nH]2)CC1 was read as MT1-MMP reporter inactive, WNV NS2B-NS3 inh 0.52 and Hsc70 ATP site 3.1%.
`Nc1ccc(-n2nncc2-c2ccco2)cc1` gave MT1-MMP reporter inactive, WNV NS2B-NS3 inh -1.06 and Hsc70 ATP site -4.3%.
Screening O=C(CSc1ncn[nH]1)Nc1ccc(Br)cc1F returned MT1-MMP reporter inactive, WNV NS2B-NS3 inh -0.84 and Hsc70 ATP site 1.1%.
CC(NC(=O)CCSc1nc(-c2ccco2)cc(C(F)(F)F)n1)c1ccccc1 (stereo not given) was read as MT1-MMP reporter inactive and Hsc70 ATP site 1.7%.
For CCOC(=O)c1csc(NC(=O)C(C)(C)C)n1 the results were MT1-MMP reporter inactive, WNV NS2B-NS3 inh -1.32 and Hsc70 ATP site 2.8%.
CCOC(=O)c1csc(NC(=O)c2ccc(S(=O)(=O)N3CCCC3)cc2)n1 was read as MT1-MMP reporter inactive, WNV NS2B-NS3 inh 1.05 and Hsc70 ATP site 3.8%.
`O=C(CSc1nnnn1-c1ccccc1)Nc1nsc(-c2ccccc2)n1` gave MT1-MMP reporter inactive, WNV NS2B-NS3 inh 1.23 and Hsc70 ATP site 2.7%.
For O=C(Cn1c(=O)oc2cc(S(=O)(=O)N3CCCC3)ccc21)Nc1ccc(C(F)(F)F)cc1 the results were MT1-MMP reporter inactive, WNV NS2B-NS3 inh 0.06 and Hsc70 ATP site 5.1%.
For O=S(=O)(/C=C/c1ccccc1)N1CCN(c2ccccc2)CC1 the results were MT1-MMP reporter inactive, WNV NS2B-NS3 inh -0.73 and Hsc70 ATP site 4.2%.
For O=S(=O)(Nc1ccc2c(c1)nc1n2CCOC1)c1ccccc1 the results were MT1-MMP reporter inactive, WNV NS2B-NS3 inh -0.83 and Hsc70 ATP site -6.3%.
`O=C(CCCN1C(=O)c2ccccc2C1=O)Nc1nccs1` gave MT1-MMP reporter inactive and Hsc70 ATP site 3.5%.
`CC(NC(=O)Cn1cc(C(=O)C2CC2)c2ccccc21)c1ccccc1` (stereo not given) gave MT1-MMP reporter inactive and Hsc70 ATP site 2.7%.
CCN(c1ccc(C)c(C)c1)S(=O)(=O)c1c(C)[nH]c(=O)[nH]c1=O was read as MT1-MMP reporter inactive and Hsc70 ATP site -0.4%.

Random excerpt: 7 entries already listed
Cc1ccc(C)n1-c1cc(S(=O)(=O)N2CCOCC2)ccc1N1CCCC1 was read as MT1-MMP reporter inactive, WNV NS2B-NS3 inh 1.63 and Hsc70 ATP site -7.3%.
CCN(c1ccc(C)c(C)c1)S(=O)(=O)c1c(C)[nH]c(=O)[nH]c1=O was read as MT1-MMP reporter inactive and Hsc70 ATP site -0.4%.
`Cc1cc(C)n(Cc2ccc(C(=O)NCCC3=CCCCC3)o2)n1` gave MT1-MMP reporter inactive, WNV NS2B-NS3 inh -0.07 and Hsc70 ATP site -6.0%.
Screening Cc1nc(SCC(=O)Nc2ccc3c(c2)OCO3)c(C#N)c2c1CCCC2 returned MT1-MMP reporter inactive, WNV NS2B-NS3 inh -0.62 and Hsc70 ATP site -1.4%.
Screening COc1nc(OCCNC(C)=O)nc(N(C)C)n1 returned MT1-MMP reporter inactive and Hsc70 ATP site -3.0%.
`Cc1ccc(-n2nnc3c(=O)n(Cc4ccccc4C)cnc32)cc1` gave MT1-MMP reporter inactive, WNV NS2B-NS3 inh 0.67 and Hsc70 ATP site 4.5%.
`O=C(CSc1nnnn1-c1ccccc1)Nc1nsc(-c2ccccc2)n1` gave MT1-MMP reporter inactive, WNV NS2B-NS3 inh 1.23 and Hsc70 ATP site 2.7%.

The listing continues.
Screening Cn1c(SCC(=O)N2c3ccccc3Sc3ccccc32)nnc1-c1ccco1 returned MT1-MMP reporter inactive, WNV NS2B-NS3 inh -0.94 and Hsc70 ATP site 3.1%.
CCOC(=O)N1CCN(C(=O)c2ccc(N(Cc3ccccc3)S(C)(=O)=O)cc2)CC1 was read as MT1-MMP reporter inactive and Hsc70 ATP site 2.1%.
Screening CNc1c(N)n(Cc2ccccc2)c(=O)[nH]c1=O returned MT1-MMP reporter inactive and Hsc70 ATP site 6.3%.
`CC(C)NC(=O)NC(=O)CSc1ncc(C(F)(F)F)cc1Cl` gave MT1-MMP reporter inactive, WNV NS2B-NS3 inh -0.59 and Hsc70 ATP site -2.0%.
For CS(=O)(=O)N(CC(=O)N1CCCCCC1)Cc1ccc(Cl)cc1 the results were MT1-MMP reporter inactive and Hsc70 ATP site -1.4%.
For CCOC(=O)C(NC(=O)C1CCCN1C(=O)OCc1ccccc1)C(=O)OCC (stereo not given) the results were MT1-MMP reporter inactive, WNV NS2B-NS3 inh -0.16 and Hsc70 ATP site -4.6%.
Cc1ccc(Cn2ncn3c(cc4ccccc43)c2=O)cc1 was read as MT1-MMP reporter inactive, WNV NS2B-NS3 inh -1.23 and Hsc70 ATP site -2.0%.
CCCn1c(=O)c2c(nc(Br)n2CCC)n(C)c1=O was read as MT1-MMP reporter inactive, WNV NS2B-NS3 inh -0.54 and Hsc70 ATP site -10.1%.

High-throughput results as filed in PubChem BioAssay.
